Screening data as filed in PubChem.
NPYLR7 agonist: agonists of mosquito NPYLR7 receptor, primary screen, cell-based, Aedes aegypti, calcium fluorescence, mosquito biting behavior; Aedes aegypti neuropeptide Y-like receptor 7 (NPYLR7); HEK293T NPYLR7/Galpha15, GCaMP6s calcium fluorescence; activation, % at 10 µM; hit rate 0.15% among 270,000; in the data active = activation above about 40%;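 also: 0% = vehicle and 100% = reference agonist at the receptor; some compounds past the cut are filed as inactive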
NPYLR7 agonist max-min: further read-out of NPYLR7 agonist, marked with its call; activation, %; measured here: Max-Min RFU normalised activation; some inactives read as strong as hits;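 span of the calcium signal over five minutes; 0% = vehicle and 100% = native peptide agonist; compound fluorescence can raise it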
An asterisk follows results filed as active; i = inactive; & = joins results of further samples. This is a subset (hit frequency here may not be typical).

Sequence of screens – NPYLR7 agonist	NPYLR7 agonist max-min
> CC1Cc2cc(C(=O)NNC(=O)Cc3cccc4ccccc34)ccc2N1S(C)(=O)=O (stereo unspecified)
 : 6.3	9.1
> CC(=O)N=c1c(Nc2ccc(Cl)cc2)nc(=O)[nH]n1C
 : 1.0	1.1
> COCCCN(CC(=O)N1CCc2sccc2C1COc1ccc(F)cc1)C(=O)c1cccs1 (stereo unspecified)
 : -3.0	0.9
> CCCCCNC(=O)c1cc(-c2cccc(OC)c2)nc2cc(-c3ccccc3)nn12
 : 12.0	8.7
> COc1ccc(CC(=O)NCC2CCCN(C(=O)CN3CCCCC3=O)C2)cc1 (stereo unspecified)
 : 13.3	4.4
> COc1ccc(CNC(=O)c2cccnc2N2CCN(C(=O)c3ccc(F)c(F)c3)CC2)cc1
 : 6.8	11.2
> COCCN(Cc1nccn1Cc1ccccc1)C(=O)CC(C)C
 : 4.0	7.3
> C=CC[C@@H]1CC=C[C@@H](C)N1C(=O)c1ccc2oc(Cc3ccccc3)nc2c1
 : 2.0	-8.7
> CC(=O)c1ccccc1OCCOC(=O)c1ccc2c(c1)NC(=O)CS2
 : 1.8	8.2
> CCCCn1c2ccccc2c2nc3cc(OC(C)C)c(OC(C)C)cc3nc21
 : 1.1	1.1
> COCCN(Cc1ccccc1)C(=O)Cn1nnn(-c2ccccc2)c1=O
 : 0.3	-1.4
> Cc1ccc2c(=O)cc(C)[nH]c2c1
 : 8.5	3.1
> CCCc1nc(N2CCN(S(=O)(=O)C[C@]34CCC(CC3=O)C4(C)C)CC2)c2c(C)nn(-c3ccccc3)c2n1
 : 5.5	10.0
> COCCNC(=O)CN1CN(c2ccccc2)C2(CCN(C(=O)Nc3ccc(C(F)(F)F)cc3)CC2)C1=O
 : 18.6	17.6
> C=CCNC(=S)NN=Cc1ccsc1
 : -9.7	-16.9

2 entries from above, as labelled records:
COCCN(Cc1nccn1Cc1ccccc1)C(=O)CC(C)C
- NPYLR7 agonist = 4.0
- NPYLR7 agonist max-min = 7.3
COc1ccc(CNC(=O)c2cccnc2N2CCN(C(=O)c3ccc(F)c(F)c3)CC2)cc1
- NPYLR7 agonist = 6.8
- NPYLR7 agonist max-min = 11.2

Compound profiles, from the list above. Order of values: NPYLR7 agonist, NPYLR7 agonist max-min
CC1Cc2cc(C(=O)NNC(=O)Cc3cccc4ccccc34)ccc2N1S(C)(=O)=O (stereo unspecified) is entered as 6.3, 9.1
CCCc1nc(N2CCN(S(=O)(=O)C[C@]34CCC(CC3=O)C4(C)C)CC2)c2c(C)nn(-c3ccccc3)c2n1 is entered as 5.5, 10.0
CC(=O)c1ccccc1OCCOC(=O)c1ccc2c(c1)NC(=O)CS2 is entered as 1.8, 8.2

New compounds follow:
Sequence of screens – NPYLR7 agonist	NPYLR7 agonist max-min
> COC(=O)C1=NN(C(=O)c2ccc(C)cc2)C(O)(c2ccc(Cl)cc2)C1 (stereo unspecified)
 : 5.9	6.5
> COC(=O)c1ccccc1SCc1ccc(C(=O)N2C3CCC2CC(Oc2ccccc2C(C)C)C3)cc1 (stereo unspecified)
 : 20.5	8.9
> COc1cccc(-c2nc(C=Nc3ccc(C)cc3Br)c(O)o2)c1
 : -6.8	-9.3
> CCOC(=O)c1c(C2CC2)csc1NC(=O)COC(=O)C12CC3CC(CC(O)(C3)C1)C2
 : -0.3	11.8
> CC1(C(=O)NS(=O)(=O)c2cccc(C#N)c2)CCN1C(=O)c1ccco1 (stereo unspecified)
 : -2.4	-8.5
> CC=CCn1c(=O)c2c(nc3n(C4CCCC4)c(C)cn23)n(C)c1=O
 : -0.6	-0.7
> Cc1cnc(NC(=O)c2ccc(=O)n(C)n2)s1
 : 1.6	-3.7
> O=C(NCC1(O)CCNC1)c1ccc(-c2cccc(F)c2)nc1 (stereo unspecified)
 : 2.1	2.0
> CCc1sc(C(=O)NCc2cc(C)n(C)n2)cc1Br
 : 23.9	17.6
> O=C(O)c1cccnc1
 : 13.9&-4.5&-6.2	5.7&-9.1&-9.9
> COC1=NC(C)(C)C=C(C)N1c1ccc(C)cc1
 : -1.3	6.2
> CCOC(=O)c1nn(-c2ccc(C)cc2)c(=O)cc1OS(=O)(=O)c1cccs1
 : 6.7	2.7
> CC(C)CNC(=O)C1(C)CCN1C(=O)c1cccc(F)c1 (stereo unspecified)
 : 5.2	5.1
> Cc1nc(C)c(C(=O)Nc2ncc(Cl)s2)o1
 : -1.8	i
> O=C(NCc1ccccc1)Nc1ccc2nc(Cc3ccccc3)nn2c1
 : 9.2	-0.7

(further entries)
Sequence of screens – NPYLR7 agonist	NPYLR7 agonist max-min
> Cc1ccc(C2=NOC(CN(Cc3cccc(Cl)c3)CC(O)COCC(C)C)C2)cc1 (stereo unspecified)
 : -3.3	-0.6
> Cc1ccc(C(=O)NC2(C(F)(F)F)C(=O)Nc3c2c(=O)[nH]c(=O)n3-c2ccccc2)cc1 (stereo unspecified)
 : -9.2	-15.2
> CCCCn1c(SCc2cn3c(C)cc(C)nc3n2)nc2cc(S(N)(=O)=O)ccc21
 : -1.8	5.0
> CCc1nc2n(n1)C(=O)C(C(c1cccc(F)c1)N1CCC3(CC1)OCCO3)S2 (stereo unspecified)
 : -1.3	-8.1
> O=C(C1C=CCN1)N1CCC(c2n[nH]c(=O)n2-c2ccccc2)CC1 (stereo unspecified)
 : 3.9	3.1
> CCN(CC)C(=O)CS(=O)C(C)c1cccc(C)c1 (stereo unspecified)
 : 7.9	4.6
> O=C(c1cccc(Cl)c1)N1CCC(N2CCC(C(=O)N3CCCC3)CC2)CC1
 : 1.2&3.8	-3.4&6.3
> COCCCn1c(=O)[nH][nH]c1=S
 : -3.1	-4.5
> Cc1ccccc1SC1CCN(C(=O)C2CCN(c3ccccc3)C2=O)CC1 (stereo unspecified)
 : 3.3	-0.2
> CCOc1ccc(CC(=O)Nc2c3c(nn2CC(=O)NCc2ccco2)CSC3)cc1
 : -5.8	2.3
> O=C(NC1CC1)c1ccc(Nc2c(Oc3ccc4c(c3)CCC4)cnn(-c3cccc(Cl)c3)c2=O)cc1
 : 11.4	15.6
> CCOC(=O)c1sc(NC(=O)COc2ccc(F)cc2)nc1C
 : 4.0	1.2
> O=C(NC1CCCCC1)NC1CCN(C(=O)c2ccc3c(c2)COC3)CC1
 : -0.4	-1.0
> Cc1oc(-c2cccc(C(F)(F)F)c2)nc1Cn1ccnc1C
 : 8.5	7.8
> Cc1cccc2sc(N(CC3CCCO3)C(=O)C3CCCCN3S(C)(=O)=O)nc12 (stereo unspecified)
 : 0.1	-1.3

Next section:
Sequence of screens – NPYLR7 agonist	NPYLR7 agonist max-min
> Cc1nccn1-c1ccc(C(C)NC(=O)c2cc(=O)c3ccccc3o2)cc1F (stereo unspecified)
 : -2.7	-3.9
> Cc1ccc(Nc2nn(CC(=O)Nc3ccc(C)c(C)c3)c(N)c2S(=O)(=O)c2ccccc2)cc1
 : 3.9	-3.9
> c1ccc(Cc2n[nH]c(Cn3cncn3)n2)cc1
 : -7.5	-11.8
> CC(C)Cc1cc(C(=O)N2C[C@@H]3[C@H](C2)[C@H]2CC[C@@H]3O2)on1
 : -1.1	-1.7
> COCCN(Cc1cc(NC(=O)c2ccccc2Cl)ccc1N(C)C)S(=O)(=O)c1ccc(F)cc1
 : 5.1	16.8
> O=C(c1cc(-n2cccn2)ccc1Cl)N1CCC(N2CCCC2=O)CC1
 : 5.1	4.8
> CC(=O)Nc1ccc(-c2c(-c3ccc(C)cc3)nn(-c3ccccc3)c2OC(C)=O)cc1
 : 10.3	19.0
> Oc1cccc(N=Cc2nc(-c3cccc4ccccc34)oc2O)c1
 : 2.3	-1.0
> COc1cnc(-c2ccc(Cl)cc2Cl)c(NC(=O)CC(C)C)n1
 : -26.0	-24.7
> Cc1nc2sccn2c(=O)c1NC(=O)C(C)Oc1ccccc1F (stereo unspecified)
 : -0.4	-1.6
> CCOC(=O)[C@@H]1C[C@H]2CN(C)C(=O)c3cccc(c32)N1C(=O)OCC(C)C
 : -1.0	7.8
> CC(C)CN(Cc1cccn1Cc1cccc(F)c1)C(=O)Nc1cccc(Br)c1
 : 19.4	12.7
> CC1CC1c1ccc(CCC(=O)Nc2ccccn2)o1 (stereo unspecified)
 : -1.2	-2.5
> CN(C(=O)CCl)c1nnc(C23CC4CC(CC(C4)C2)C3)s1
 : 0.1	-0.5
> O=C(c1ccccc1N1CCC(NC(=S)Nc2ccc(F)cc2)CC1)N1CCN(C2CCCC2)CC1
 : 0.9	7.8

The results go on:
Sequence of screens – NPYLR7 agonist	NPYLR7 agonist max-min
> CCN(CC)CCNC(=O)Cn1nc(C)n2c(cc3sccc32)c1=O
 : 3.1	5.3
> CC(NC(C)c1ccccc1Cl)c1ccc(F)cc1 (stereo unspecified)
 : 7.2	3.8
> CC1=C(C(=O)OCCOc2ccccc2)C(c2cccc(F)c2)NC(=O)N1 (stereo unspecified)
 : 1.5	-3.4
> c1csc(-c2cc(NC3CCNCC3)nc3[nH]ccc23)n1
 : 2.3	0.3
> COC(=O)c1[nH]ncc1CN1CCCC(OCc2ccccn2)C1 (stereo unspecified)
 : -5.9	-4.8
> c1ccc(C2OCC3Cc4ccccc4C3O2)cc1 (stereo unspecified)
 : 1.0	0.2
> COc1ccc(-c2csc(-n3nc(C)cc3NC(=O)c3cccs3)n2)cc1OC
 : -4.1	-7.8
> CCN(C(=O)CSc1nc(C(C)(C)C)nc2c1c(=O)n(C)c(=O)n2C)C1=CCCCC1
 : -2.2	-4.3
> COc1ccc(CCN(Cc2sccc2C)C(=O)CN(CC(C)C)C(=O)Nc2c(C)cccc2C)cc1OC
 : -7.1	1.5
> O=C(CN(C(=O)c1ccc2ccccc2c1)C1CC1)N1CC(=O)N(c2ccc(Cl)cc2)C1
 : -17.5	-12.7
> Cc1cnc(N(C)Cc2n[nH]c3c2CCCC3)nc1N(C)C
 : 16.2	16.7
> CN(Cc1nc2ccccc2[nH]1)C(=O)C1CCCN(C(=O)c2ccco2)C1 (stereo unspecified)
 : 8.2	5.2
> CCCCC(=O)Nc1ccc(N2CCCCC2)c(C(=O)N2CCCC2)c1
 : 8.0	8.2
> CN(c1ccccc1)S(=O)(=O)c1cccc(NS(=O)(=O)c2ccc(Cl)s2)c1
 : 11.9	25.5
> c1cc(-c2cccc(-n3cccn3)c2)cc(-n2cnnc2)c1
 : 5.4	2.6

A portion taken from the entries so far:
Sequence of screens – NPYLR7 agonist	NPYLR7 agonist max-min
> c1ccc(C2OCC3Cc4ccccc4C3O2)cc1 (stereo unspecified)
 : 1.0	0.2
> COc1ccc(-c2csc(-n3nc(C)cc3NC(=O)c3cccs3)n2)cc1OC
 : -4.1	-7.8

Reformatted field by field: four of the compounds above.
mol: CCN(C(=O)CSc1nc(C(C)(C)C)nc2c1c(=O)n(C)c(=O)n2C)C1=CCCCC1
  NPYLR7 agonist: -2.2	NPYLR7 agonist max-min: -4.3
mol: COc1ccc(CCN(Cc2sccc2C)C(=O)CN(CC(C)C)C(=O)Nc2c(C)cccc2C)cc1OC
  NPYLR7 agonist: -7.1	NPYLR7 agonist max-min: 1.5
mol: O=C(CN(C(=O)c1ccc2ccccc2c1)C1CC1)N1CC(=O)N(c2ccc(Cl)cc2)C1
  NPYLR7 agonist: -17.5	NPYLR7 agonist max-min: -12.7
mol: Cc1cnc(N(C)Cc2n[nH]c3c2CCCC3)nc1N(C)C
  NPYLR7 agonist: 16.2	NPYLR7 agonist max-min: 16.7

Next part.
Sequence of screens – NPYLR7 agonist	NPYLR7 agonist max-min
> COC(=O)c1oc2nc(C)cc(C)c2c1N
 : 3.3	6.8
> C=CCNC(CC(=O)Nc1ccc(OC(F)F)cc1)C(=O)O (stereo unspecified)
 : 22.0	13.4
> COC(=O)c1sc(S(=O)(=O)Nc2ccccc2Br)c(C(=O)OC)c1C
 : 0.0	-1.6
> CN(C)CCCN(C(=O)c1ccccc1S(C)(=O)=O)c1nc2c(Cl)cccc2s1
 : -1.0	-4.1
> COc1ccccc1C(=O)Nc1nnc(-c2ccco2)s1
 : -8.2	-11.5
> O=C(c1ccc(Cn2cnnn2)cc1)N1CCCC(CO)(Cc2ccccc2)C1 (stereo unspecified)
 : 11.2	6.5
> CSc1cccc(NC(=O)c2ccc(NC(C)C)nc2)c1
 : -1.9	-3.3
> Cc1nsc(NC(=O)N2CCC(O)(c3ccc(F)cc3)CC2)n1
 : 8.6	6.7
> C#CCOCC(O)CN(Cc1ccccc1)Cc1nc2sc(C(C)C)cc2c(=O)[nH]1 (stereo unspecified)
 : -7.2	0.8
> CCOC(=O)c1ccc(NC(N)=Nc2nc(CC(=O)OC)cc(=O)[nH]2)cc1
 : -0.7	-1.5
> COc1ccc(CNS(=O)(=O)c2cc(Cl)c(C)cc2OC)cc1
 : 10.0	9.7
> CC(=O)N1C2CCC3(CC2)OC(=O)N(Cc2ccccc2)CC13 (stereo unspecified)
 : 26.9	33.2
> c1ccc2c(N3CCCCC3)nc(N3CCCC3)nc2c1
 : 16.0	13.6
> Cc1cccc(C(=O)Nc2c(C)nc3scc(C)n3c2=O)c1
 : 11.9	2.5
